PINK1 modulator: changes PINK1 expression; Potency, µM (titrated, usually from 76.6 µM), without a hit: at the top dose activation (PINK1 increase), usual class: activators; 410,000 compounds, 0.2% hits; PINK1 immunofluorescence, high-content cytometry, 24 h; active = well fitted activation curve with a large enough effect; inconclusive = small, poorly fitted or top-dose-only effect; inactive = flat fitted curve, though single readings scatter; cell line not stated here;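 further: % of control where 0% means no effect; nearly all actives have a fitted effect of over 65% in size; a mitochondrial uncoupler was the plate control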
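Cells are seeded, rested 12 hours, then given compound at five concentrations or DMSO for 24 hours. After fixation, blocking and antibody staining, PINK1 amount and mitochondrial localization are scored; CCCP serves as control.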
An asterisk follows results filed as active; & = joins results of further samples. Potency means the concentration at half of the fitted maximal effect. These rows are one share of the data. The share of hits here may be higher or lower than overall.

SMILES	PINK1 modulator
COc1ccc(-c2cc(C(=O)Oc3ccc(Cl)cc3)c3ccccc3n2)cc1	1.7%
O=C(Nc1ccc(C(=O)N2CCN(c3cccc(Cl)c3)CC2)cc1)c1nsc2ccccc12	0.7%
COc1ccc(OC)c(/C=C/c2cc3ccccc3c[n+]2C)c1	1.7%
Cc1cccc(CSc2nc3cccnc3n2Cc2ccc(C(=O)NCc3cccs3)cc2)c1	0.2%
CCOc1ccc(NC(=O)C(=O)NCCc2csc(-c3ccc(F)cc3)n2)cc1	1.4%
CCOc1ccc(-n2c(SCC(=O)Nc3ccc4c(c3)OCCO4)nc3c([nH]c4ccccc43)c2=O)cc1	-3.9%
COc1ccc(NC(=O)c2oc3ccccc3c2NC(=O)Cc2coc3c(C)c(C)ccc23)cc1	7.8%
CC(=O)Nc1cccc(-c2nc(-c3ccccc3)no2)c1	0.2%
Cc1occc1C(=O)Nc1cccc(-c2nc(CNC(=O)c3ccc4ccccc4n3)c(C)o2)c1	0.5%
O=C(COc1ccc(Cl)cc1Cl)Nc1ccc(C(=O)OC2CCCCC2)cc1	0.3%
COCCNC(=O)C(=O)NCC(c1cccnc1)N1CCN(c2ccccc2)CC1 (stereo unspecified)	0.6%
Cc1cccc(S(=O)(=O)c2cn(Cc3ccccc3)c3cc(N4CCCC(C)C4)c(F)cc3c2=O)c1 (stereo unspecified)	16%
Cc1ccccc1Cn1c(=O)n(CCc2ccccc2)c(=O)c2sc3ccccc3c21	3.8%
CCOC(=O)c1ccc(NC(=O)C2CCCN(c3ncnc4onc(C)c34)C2)cc1 (stereo unspecified)	-0.1%
COc1cccc(CNC(=O)c2sc3nc4n(c(=O)c3c2C)CCC4)c1	5.7%
Cc1ccc(/C=C/c2onc(C)c2S(=O)(=O)N2CCC(C(=O)N3CCN(c4cccc(C)c4)C(C)C3)CC2)cc1 (stereo unspecified)	0.1%
Cc1ccc(N(C)S(=O)(=O)c2ccc(-c3coc(C)n3)cc2)cc1	-4.3%
Cc1cccc2cc(CN(C(=O)c3ccc(C(F)(F)F)cc3)C3CC3)c(N3CCC(O)CC3)nc12	0.4%
Cc1cccc(Cn2c(=O)n(CC3CCC(C(=O)N4CCC(C)CC4)CC3)c(=O)c3sccc32)c1 (stereo unspecified)	1.0%
Cc1cccc(C(=O)Nc2ccccc2OCc2cc(=O)n3cc(C)ccc3n2)c1	-0.4%
CCOc1ccc(N(C(=O)c2ccc(C)cc2)S(=O)(=O)c2ccc3c(c2)n(C)c(=O)n3C)cc1	2.6%
COc1cc(=O)n2c(c1C(=O)NCc1ccco1)CCN(C(=O)c1ccccc1-c1ncc[nH]1)CC2	1.8%
COc1ccc(C2(CNC(=O)C(=O)Nc3ccc(F)cc3)CCCC2)cc1OC	-1.1%
COc1cc(C(=O)N2CCN(C(=O)COc3cccc(C)c3)CC2)cc(OC)c1OC	2.2%
CC(C)CC(=O)Nc1ccc2nc(SCC(=O)N3CCc4ccccc43)sc2c1	-0.3%
Cc1ccc2c(c1)c1c(c(=O)n(-c3ccccc3)c(=O)n1CC(=O)c1ccc(Cl)cc1)n2C	0.2%
Cc1c(CNCCCc2ccccc2)c(C(=O)O)c(C)n1Cc1ccc(Cl)cc1	-0.5%
COc1ccc(CCn2c3c(c(=O)[nH]c2=S)CN(CC(C)C)CN3)cc1OC	3.3%
Cc1ccc2c(c1)-c1ncc(C(=O)c3ccccc3O)cc1CO2	2.1%
COc1ccc(NC(=O)C(C)n2nnc3sc(-c4ccccc4)cc3c2=O)cc1Cl (stereo unspecified)	3.9%
CCN1CCCC1CNC(=O)c1cnn(-c2nccc(-c3cc4ccccc4o3)n2)c1C (stereo unspecified)	-0.7%
COc1ccccc1N1CCN(S(=O)(=O)c2c(C)sc3ncn(CC(=O)Nc4cccc(Cl)c4)c(=O)c23)CC1	0.5%
COc1ccccc1/C=C/c1nc(C#N)c(N2CCN(c3ccccc3)CC2)o1	0.6%
O=C(Cn1cc(S(=O)(=O)Cc2ccccc2F)c2ccccc21)NCc1ccccc1	9.4%
COc1ccc(OC)c(CCNC(=O)CS(=O)(=O)Cc2nc(-c3cccc(Cl)c3)oc2C)c1	3.3%
Cc1nn(CCCC(=O)NCCc2ccc(Cl)cc2)c(=O)c2c1sc1ccccc12	1.8%
CCOc1ccc(NC(=O)Cn2cc(C(=O)c3ccc(C)c(C)c3)c(=O)c3cc(OC)c(OC)cc32)cc1	-0.9%
CCOC(=O)c1c(C)[nH]c(C)c1S(=O)(=O)N1CCC(C(=O)N2CCN(c3cccc(C)c3C)CC2)CC1	-0.2%
COc1ccc(OC)c(NC(=O)c2nc(SCc3ccccc3F)ncc2Cl)c1	3.7%&-0.4%
Cc1ccccc1S(=O)Cc1ccc(C(=O)N2CCN(c3cccc(C)c3C)CC2)o1 (stereo unspecified)	2.0%

For reference, four of the compounds above:
SMILES	PINK1 modulator
CCN1CCCC1CNC(=O)c1cnn(-c2nccc(-c3cc4ccccc4o3)n2)c1C (stereo unspecified)	-0.7%
COc1ccccc1N1CCN(S(=O)(=O)c2c(C)sc3ncn(CC(=O)Nc4cccc(Cl)c4)c(=O)c23)CC1	0.5%
COc1ccccc1/C=C/c1nc(C#N)c(N2CCN(c3ccccc3)CC2)o1	0.6%
O=C(Cn1cc(S(=O)(=O)Cc2ccccc2F)c2ccccc21)NCc1ccccc1	9.4%

Next results.
SMILES	PINK1 modulator
COc1ccc(C)cc1NC(=O)c1c2c(nc3ccccc13)C(=O)N(C1CCCCC1)C2	0.0%
Cn1c(SCc2ccc(F)cc2)nc2ccc(C(=O)NCc3ccc(F)cc3)cc21	-0.7%
O=C(CSc1nnc(-c2ccccc2F)o1)Nc1cccc(C(F)(F)F)c1	0.4%
Cc1ccc(Cn2c(SCc3ccc(C(=O)O)cc3)nc3cccnc32)cc1	-0.8%
O=C(NCCCN1CCN(c2ccccc2F)CC1)c1sc2ncccc2c1-n1cccc1	0.2%
Cc1ccc(-c2nnc(Nc3ccc(Br)cc3)c3ccccc23)cc1S(=O)(=O)N1CCCCC1	5.3%
Cc1ccc(-c2cn3c(n2)sc2cc(C(=O)N4CCCCC4)ccc23)cc1	0.4%
Cc1cc(C)c(NC(=O)Cn2c(SCC(=O)NCc3ccccc3)nc3ccccc32)c(C)c1	0.2%
Cc1c(Cl)cccc1NC(=O)Cn1c(=O)n(Cc2nc(-c3ccccc3)no2)c(=O)c2cc3c(cc21)OCO3	7.4%
CC(C)c1cc(-c2nc(-c3cccc(Cl)c3)no2)n[nH]1	2.5%
Cc1ccc(NC(=O)CN2C(=O)CC(c3ccc(F)cc3)=Nc3ccccc32)cc1F	8.6%
COc1ccc(-c2cc(C)no2)cc1S(=O)(=O)NC(C)C	1.2%
O=C(C1CCC1)N1CCc2cc(S(=O)(=O)NCc3ccc(F)cc3)ccc21	4.6%
CCOc1ccc(NC(=O)C(=O)NCc2ccco2)cc1	0.5%
COc1ccc(C2=Nn3c(nnc3-c3ccccc3OC)SC2)cc1OC1CCCC1	-0.8%
O=C(Nc1cccc(C(F)(F)F)c1)C1CCN(S(=O)(=O)c2cccs2)CC1	21%
COc1ccc(S(=O)(=O)NCC(c2ccco2)N2CCN(c3ccccc3F)CC2)cc1OC (stereo unspecified)	0.5%
Cc1ccc2c(c1)N(C(=O)N1CCC(C(=O)NC3CCCCCC3)CC1)CC(C)O2 (stereo unspecified)	-0.9%
Cc1ccc(CNC(=O)c2oc3ccc(S(=O)(=O)N4CCCC(C)C4)cc3c2C)cc1 (stereo unspecified)	-0.1%
O=S(=O)(c1ccc2ccccc2c1)N1CCN(S(=O)(=O)c2c(F)cccc2F)CC1	6.0%

Some values from above.
Under PINK1 modulator, Cc1ccc(-c2cn3c(n2)sc2cc(C(=O)N4CCCCC4)ccc23)cc1 has the entry 0.4%
Under PINK1 modulator, Cc1c(Cl)cccc1NC(=O)Cn1c(=O)n(Cc2nc(-c3ccccc3)no2)c(=O)c2cc3c(cc21)OCO3 has the entry 7.4%
Under PINK1 modulator, CCOc1ccc(NC(=O)C(=O)NCc2ccco2)cc1 has the entry 0.5%
Under PINK1 modulator, O=C(C1CCC1)N1CCc2cc(S(=O)(=O)NCc3ccc(F)cc3)ccc21 has the entry 4.6%
Under PINK1 modulator, COc1ccc(C2=Nn3c(nnc3-c3ccccc3OC)SC2)cc1OC1CCCC1 has the entry -0.8%
Under PINK1 modulator, CC(C)c1cc(-c2nc(-c3cccc(Cl)c3)no2)n[nH]1 has the entry 2.5%
Under PINK1 modulator, O=C(CSc1nnc(-c2ccccc2F)o1)Nc1cccc(C(F)(F)F)c1 has the entry 0.4%

More records follow.
SMILES	PINK1 modulator
CCC(Oc1ccc(F)cc1)C(=O)Nc1c(C(=O)c2ccc(C)cc2)oc2ccccc12 (stereo unspecified)	0.4%
Cc1cc(NC(=O)Nc2nnc(N(C)Cc3ccccc3)s2)ccc1Br	-1.5%
CCc1ccccc1N1C(=O)N(C)c2ccccc2S1(=O)=O	0.5%
CC(C)Oc1ccc(-c2nc(-c3cccnc3)no2)cc1	3.6%
COc1ccccc1CNC(=O)C1CCCN(S(=O)(=O)c2ccc3c(c2)oc(=O)n3C)C1 (stereo unspecified)	0.0%
CCN(CC)CCCNC(=O)c1cn(CC)c2ccc(S(=O)(=O)N3CCC(C)CC3)cc2c1=O	-0.3%
Cc1cc(C)c(C#N)c(SCC(=O)Nc2ccccc2C#N)n1	1.9%
CCOC(=O)CCCCN(Cc1ccccc1F)S(=O)(=O)c1ccc(F)c(C(=O)Nc2cc(Cl)cc(Cl)c2)c1	-1.2%
Cc1ccc(-n2c(SCC(=O)NCc3ccccc3)nc3c([nH]c4ccccc43)c2=O)cc1	6.0%
COCCCN1CCc2nc(SCC(=O)Nc3ccc(C)c(Cl)c3)[nH]c(=O)c2C1	1.6%
Cc1ccc(-n2ncc(C(=O)N3CCN(C(=O)c4ccco4)CC3)c2C2CCN(C(=O)OC(C)(C)C)CC2)cc1	0.8%
COc1cccc(OCc2nc3ccccc3n2CCOc2cccc(C)c2)c1	0.8%
COC(=O)c1ccc(NC(=O)N2CCN(Cc3cc(=O)n4nc(-c5ccc(C)cc5)sc4n3)CC2)cc1	0.1%
CCCOc1ccc(C(=O)N(Cc2ccccc2Cl)C2CCS(=O)(=O)C2)cc1 (stereo unspecified)	-0.4%
CCc1ccc(C(=O)CSc2nc(-c3ccccc3)nc3c2CCCC3)cc1	-3.6%
OCCN1CCN(Cc2ccc3c(c2)CN(Cc2cc4ccccc4o2)CCO3)CC1	-0.6%
O=S(=O)(NCc1ccc(Cl)cc1)c1ccc(-c2cnc(C3CC3)o2)cc1	12%
Cc1ccc(S(=O)Cc2nc(-c3ccc(C(=O)NCc4cccc(C)c4)cc3)oc2C)cc1 (stereo unspecified)	0.9%
CC(C)(C)C1CCc2nc(NC(=O)c3ccc([N+](=O)[O-])cc3)sc2C1 (stereo unspecified)	0.9%
COc1ccc(N2CCN(c3ncnc4c3nnn4C)CC2)cc1	1.2%
COc1cccc(-c2nnc(SCC(=O)N3CCCCC3)o2)c1	0.1%
Cc1ccc(C)n1-c1nnc(N2CCC(C(=O)Nc3ccccc3Br)CC2)s1	0.7%
COc1ccc(C2N=C(N)Nc3nc4ccccc4n32)cc1 (stereo unspecified)	0.4%
CCc1ccc(NC(=O)Nc2ccccc2OCc2cc(=O)n3ccccc3n2)cc1	-2.7%
Cn1ccc2cc(S(=O)(=O)N3CCCC(C(=O)NCc4ccc(F)cc4)C3)ccc21 (stereo unspecified)	0.7%
COc1ccc(CCNC(=O)Cn2c(=O)nc(-c3ccccc3F)c3cc(Cl)ccc32)cc1OC	0.9%
Cc1cccc(-c2nc(CCNC(=O)Cc3ccccc3)cs2)c1	0.2%
COc1ccccc1-c1noc(-c2ccc(NCc3ccco3)c([N+](=O)[O-])c2)n1	3.7%
Cc1ccc(C)c(N2CCN(C(c3ccccc3)c3nnc(-c4ccccc4)o3)CC2)c1 (stereo unspecified)	5.5%
Cn1cc(S(=O)(=O)N2CCCCCC2)cc1C(=O)Nc1ccccc1F	1.4%
CCc1ccccc1NC(=O)CN(c1ccccc1)S(=O)(=O)c1ccsc1C(=O)OC	-0.4%
Cc1ncc2c(c1CNC(=O)/C=C/c1cccs1)CCN(C(=O)c1cc(C(C)C)on1)C2	-0.8%
Cc1cccc(NC(=O)CCc2c(C)nc3c(c(C)nn3C(C)(C)C)c2C)c1C	0.2%
Cc1nc(-c2ccc(Cl)cc2)sc1CCNC(=O)c1ccco1	2.8%
CCc1ccc(-n2nc(CO)c(C(=O)NCc3ccccc3Cl)n2)cc1	0.8%
Cc1ccc(-n2nc3cc(C)c(NC(=O)c4ccc(-c5ccccc5)o4)cc3n2)cc1	1.1%
O=c1n(Cc2cccc(F)c2)c2ccccc2c2nc(-c3ccccc3)nn12	-0.6%
CCc1ccc(NC(=O)Cn2nc3c4ccccc4n(Cc4ccccc4)cc-3c2=O)cc1	12%
CSc1ncc2c(n1)-c1ccccc1N(Cc1ccc(Cl)cc1)S2(=O)=O	0.3%
CCCCn1c(CNC(=O)C23CC4CC(CC(C4)C2)C3)nnc1SCC(=O)Nc1ccc(C)cc1	16%
Cc1ccc(C)c(NC(=O)Cn2c(=O)n(Cc3ccccc3)c(=O)c3oc4ccccc4c32)c1	-2.0%

Arranged by number of heavy atoms (lowest first): 3 of the compounds above
SMILES	PINK1 modulator
O=c1n(Cc2cccc(F)c2)c2ccccc2c2nc(-c3ccccc3)nn12	-0.6%
Cc1ccc2c(c1)N(C(=O)N1CCC(C(=O)NC3CCCCCC3)CC1)CC(C)O2 (stereo unspecified)	-0.9%
Cc1ccc(-n2c(SCC(=O)NCc3ccccc3)nc3c([nH]c4ccccc43)c2=O)cc1	6.0%

Screening results deposited in PubChem BioAssay by National Center for Advancing Translational Sciences (NCATS).
